Bioassay records from PubChem.
Six1-Eya2 blk: inhibitors of human Six1/Eya2 interaction; AlphaScreen GST-Six1/His-Eya2 binding, biochemical; hits give low values; control for the full effect not named in the record; activity change, % (no concentration beside the values); AID 651725; Q15475+O00167; 360,000 compounds, 0.56% hits; in the data active = activity change below about -65%; inconclusive = about -30% to -65%; inactive = above about -30%; note: % is set by controls: 0 for no effect and ±100 for the full control effect
Target sequence (O00167 whole entry, looked up): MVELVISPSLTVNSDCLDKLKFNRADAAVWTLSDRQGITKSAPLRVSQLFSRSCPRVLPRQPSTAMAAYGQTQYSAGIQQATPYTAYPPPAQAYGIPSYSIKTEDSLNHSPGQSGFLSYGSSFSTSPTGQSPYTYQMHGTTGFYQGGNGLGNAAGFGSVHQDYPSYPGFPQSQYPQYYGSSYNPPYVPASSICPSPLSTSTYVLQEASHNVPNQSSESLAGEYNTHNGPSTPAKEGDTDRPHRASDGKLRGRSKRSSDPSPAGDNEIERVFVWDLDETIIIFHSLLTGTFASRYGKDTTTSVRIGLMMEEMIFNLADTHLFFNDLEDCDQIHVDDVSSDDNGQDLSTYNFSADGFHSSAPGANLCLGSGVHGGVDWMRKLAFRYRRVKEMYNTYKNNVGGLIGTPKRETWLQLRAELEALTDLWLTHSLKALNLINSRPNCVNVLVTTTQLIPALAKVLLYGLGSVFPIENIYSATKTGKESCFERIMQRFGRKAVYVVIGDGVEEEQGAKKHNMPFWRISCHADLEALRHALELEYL
Target sequence (Q15475 whole entry, looked up): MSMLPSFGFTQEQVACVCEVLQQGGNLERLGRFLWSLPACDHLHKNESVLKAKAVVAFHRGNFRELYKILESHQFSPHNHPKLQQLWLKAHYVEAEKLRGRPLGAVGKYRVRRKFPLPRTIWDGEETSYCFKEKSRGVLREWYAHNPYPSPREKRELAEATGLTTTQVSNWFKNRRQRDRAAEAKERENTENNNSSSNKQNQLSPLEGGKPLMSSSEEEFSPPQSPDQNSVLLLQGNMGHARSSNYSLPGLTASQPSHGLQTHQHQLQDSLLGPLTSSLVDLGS
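AlphaScreen with GST-Six1 and His-Eya2 (5X mix: 250 nM and 500 nM), glutathione donor and nickel acceptor beads; buffer 50 mM Tris pH 8.0, 300 mM NaCl, 1 mM TCEP; 1 h at 37 C in the dark.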
D2 PAM: positive allosteric modulators of human D2 dopamine receptor; 360,000 compounds, 0.23% hits; AID 624464; P14416; potentiation, % (test concentration not listed); DiscoveRx D2 beta-arrestin cells, luminescence, 90 min; 100% = 57 uM dopamine signal; active = potentiation of 50% or more; inconclusive = 30% to 50%; inactive = 30% or less;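 note: compound concentration not given in the record; tested on top of an EC20 dose of dopamine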
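PathHunter beta-arrestin assay in DiscoveRx D2 cells. Compounds were added with an EC20 of dopamine (50 nM final) for 90 min at 37 deg C. Luminescence was read 1 h after detection reagent, with 57 uM dopamine as the EC100 control.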
D2 ag: human D2 receptor agonism in beta-arrestin assay; P14416; DiscoveRx PathHunter D2 beta-arrestin, luminescence, 90 min; 100% = 57 uM dopamine signal; activation, % (concentration not given with the values); 360,000 compounds, 0.084% hits; in the data active = activation above about 40%; inconclusive = about 15% to 40%; inactive = below about 15%; note: the text of the record calls up to 30% inactive
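Agonist mode: compounds alone added to overnight-plated D2 PathHunter cells for 90 min at 37 C, with 57 uM final dopamine (EC100) defining full response. Beta-arrestin recruitment detected by chemiluminescent reagent, read after 1 h at ambient temperature.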
CtBP-E1A inh: CtBP/E1A binding inhibition | AlphaScreen GST-E1A/His-CtBP binding, 1536-well; hits give low values; control for the full effect not named in the record | activity change, % (concentration not given with the values) | 340,000 compounds, 0.49% hits | AID 651724; in the data active means activity change below about -65%; inconclusive means about -30% to -65%; inactive means above about -30%; note: % is set by controls: 0 for no effect and ±100 for the full control effect
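Steps: dispense buffer (Tris pH 8.0, NaCl 300 mM, TCEP 1 mM, BSA, Tween 20); add 5X protein mix (GST-E1A, His-CtBP, 125 nM each); pin 23 nL compound; 2 h at 37 °C, dark; add 5X beads (50 ug/mL); 1 h; read.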
gsp agonist: gsp mutant agonism | gsp mutant cells, cAMP HTRF, 30 min; control for the full effect not named in the record | Potency, µM (top dose mostly 76.9 µM), for inactives: top-dose activation (cAMP increase), usual class: activators | 340,000 compounds, 0.13% hits; active = well fitted activation curve with a large enough effect; inconclusive = small, poorly fitted or top-dose-only effect, or another doubt; inactive = no such curve, though single readings can be large or run the other way; cell line not stated here;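 note: phosphodiesterase inhibitor Ro 20-1724 added with compounds to block cAMP breakdown; potency is the fitted concentration of half-maximal effect; nearly all actives have a fitted effect of over 60% in size; about a fifth of the inactives were tested at one dose only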
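Cells stably selected in G418 were plated at 2000/well, grown 16-24 hr, then given compounds in DMSO with the PDE inhibitor […] (300 uM solution added) for 30 min at 37C; cAMP was read by HTRF.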
gsp antag: antagonists of gsp mutant (McCune-Albright syndrome) | Potency, µM (doses to about 76.9 µM), inactives show at the highest dose activity change, negative = inhibition, actives largely listed as inhibitors | AID 624288 | 340,000 compounds, 0.4% hits | gsp-mutant cells, cAMP HTRF, 30 min; control for the full effect not named in the record; active = falling curve of any shape with a large fitted effect; inconclusive = falling curve, mostly with a smaller effect; inactive = flat or rising curve; cell line not stated here;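 note: intracellular cAMP measured with PDE inhibitor Ro 20-1724 present during compound exposure; potency is the fitted concentration of half-maximal effect; % is set by controls: 0 for no effect and ±100 for the full control effect; nearly all actives have a fitted effect of over 65% in size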
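HTRF cAMP read-out (cAMP-d2 plus anti-cAMP antibody-K in lysis buffer, 30 min RT). Before lysis, cells are exposed to compounds with […] for 30 min at 37C in DPBS containing Ca/Mg, BSA and Tween 20.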
* hit, by the source's call; [ ] = dose if it differs, or a comment.

`COc1ccc(-c2nc(C#N)c(N3CCCCCC3)o2)cc1OC` gave Six1-Eya2 blk inconclusive, D2 PAM 20, D2 ag -0.6, CtBP-E1A inh 10, gsp agonist 7% and gsp antag -5%.
For Cc1ccc2c(c1)c1c(n2CC(O)CNC(CO)(CO)CO)CCCC1 (configuration not stated) the results were Six1-Eya2 blk -14, D2 PAM -5, D2 ag -2.4, CtBP-E1A inh -7, gsp agonist -31% and gsp antag 6%.
Screening COC(=O)c1c(-c2ccc(F)cc2)noc1N returned Six1-Eya2 blk 4, D2 PAM -13, D2 ag 0.9, CtBP-E1A inh 11, gsp agonist 13% and gsp antag 15%.
For Cc1ccccc1Cn1c(NC2CCCC2)nc2c1c(=O)[nH]c(=O)n2C the results were Six1-Eya2 blk 6, D2 PAM -3, D2 ag -3.2, CtBP-E1A inh 1, gsp agonist -37% and gsp antag -36%.
CCOC(=O)c1c(NC(=O)CSc2nnnn2C)sc(CC)c1C was read as Six1-Eya2 blk -5, D2 PAM -13, D2 ag 0.7, CtBP-E1A inh -7, gsp agonist -4% and gsp antag -13%.
For Cn1c(=O)oc2cc(S(=O)(=O)NCCC(=O)N3CCN(c4ccccc4F)CC3)ccc21 the results were Six1-Eya2 blk 0, D2 PAM -2, D2 ag 0.8, CtBP-E1A inh 2, gsp agonist 1% and gsp antag 3%.
`COc1ccc(NC(=O)C(NC(=O)OC(C)(C)C)C(C)OCc2ccccc2)cc1` (configuration not stated) gave Six1-Eya2 blk 4, D2 PAM -3, D2 ag -4.6, CtBP-E1A inh 6, gsp agonist -6% and gsp antag 2%.
`COc1ccc(S(=O)(=O)NC(CC(=O)NCCc2ccc(OC)c(OC)c2)C(C)C)cc1` (configuration not stated) gave Six1-Eya2 blk 3, D2 PAM 0, D2 ag 2.0, CtBP-E1A inh 0, gsp agonist 4%[15.4 µM] and gsp antag 4%.
Screening CC(C)C(=O)Nc1cccc(C(=O)OCC(=O)c2ccc(Cl)cc2Cl)c1 returned Six1-Eya2 blk 3, D2 PAM -10, D2 ag -2.1, CtBP-E1A inh 8, gsp agonist 45% and gsp antag 18%.
For N#Cc1cnn(-c2ncnc3sc4c(c23)CCCC4)c1N the results were Six1-Eya2 blk -16, D2 PAM -10, D2 ag -0.4, CtBP-E1A inh -11, gsp agonist 23% and gsp antag 7%.

Quoted at random: 3 entries already listed.
For Cn1c(=O)oc2cc(S(=O)(=O)NCCC(=O)N3CCN(c4ccccc4F)CC3)ccc21 the results were Six1-Eya2 blk 0, D2 PAM -2, D2 ag 0.8, CtBP-E1A inh 2, gsp agonist 1% and gsp antag 3%.
Screening CC(C)C(=O)Nc1cccc(C(=O)OCC(=O)c2ccc(Cl)cc2Cl)c1 returned Six1-Eya2 blk 3, D2 PAM -10, D2 ag -2.1, CtBP-E1A inh 8, gsp agonist 45% and gsp antag 18%.
For Cc1ccc2c(c1)c1c(n2CC(O)CNC(CO)(CO)CO)CCCC1 (configuration not stated) the results were Six1-Eya2 blk -14, D2 PAM -5, D2 ag -2.4, CtBP-E1A inh -7, gsp agonist -31% and gsp antag 6%.

(next part)
Screening CC(C)Cn1c(=O)n(C)c(=O)c2[nH]cnc21 returned Six1-Eya2 blk 3, D2 PAM -5, D2 ag -3.7, CtBP-E1A inh 0 and gsp antag -7%.
Screening CCOC(=O)/C(C#N)=C/c1cn(CCC(=O)O)nc1-c1cccc(Br)c1 returned Six1-Eya2 blk 7, D2 PAM -7, D2 ag 0.2, CtBP-E1A inh 2 and gsp agonist -1%[15.4 µM].
CC(C)OCCCNC(=O)c1c(N)n(/N=C/c2cccs2)c2nc3ccccc3nc12 was read as Six1-Eya2 blk 6, D2 PAM -19, D2 ag -5.4, CtBP-E1A inh 12, gsp agonist inconclusive and gsp antag 14%.
`CCN(CC(=O)NCc1ccc(Cl)cc1)C(=O)/C=C/c1ccccc1` gave Six1-Eya2 blk -2, D2 PAM -3, D2 ag -4.7, CtBP-E1A inh 0, gsp agonist -23%[15.4 µM] and gsp antag -2%.
For CCOc1ccc(CCNC(=O)C2CCCN2C(=O)OCc2ccccc2)cc1OCC (configuration not stated) the results were Six1-Eya2 blk 1, D2 PAM -15, D2 ag -3.4, gsp agonist -1% and gsp antag -15%.
O=C(CCC(=O)c1cccs1)OCc1ccc([N+](=O)[O-])cc1 was read as Six1-Eya2 blk -1, D2 PAM -3, D2 ag -3.6, CtBP-E1A inh -4, gsp agonist -21% and gsp antag 10%.
CN(CC(=O)Nc1ccc(F)cc1)C(=O)CCc1ccccc1 was read as Six1-Eya2 blk 1, D2 PAM 0, D2 ag -5.0, CtBP-E1A inh 3, gsp agonist 1%[15.4 µM] and gsp antag 8%.
For O=C(c1ccc(-c2nnc(Nc3ccccc3)c3ccccc23)cc1)N1C[C@H]2C[C@H](C1)c1cccc(=O)n1C2 the results were Six1-Eya2 blk -20, D2 PAM -15, D2 ag -0.7, CtBP-E1A inh -6, gsp agonist 4% and gsp antag -14%.
Screening Cc1nnc(SCc2ccc(F)cc2)s1 returned Six1-Eya2 blk 5, D2 PAM 2, D2 ag -3.5, CtBP-E1A inh 13, gsp agonist -6% and gsp antag -12%.
`Cc1cccc(-n2ncc3c(Nc4ccc(F)cc4)ncnc32)c1` gave Six1-Eya2 blk -9, D2 PAM -2, D2 ag 0.4, CtBP-E1A inh -5, gsp agonist 0% and gsp antag -16%.
`O=C(O)c1ccc(Br)c(S(=O)(=O)N2CCCC2)c1` gave Six1-Eya2 blk -1, D2 PAM -2, D2 ag -2.4, CtBP-E1A inh -11, gsp agonist -9% and gsp antag -16%.
Cc1ccc(-c2nn(-c3cc(Cl)ccc3[N+](=O)[O-])c(=O)c3ccccc23)cc1 was read as Six1-Eya2 blk -27, D2 PAM -6, D2 ag -3.0, CtBP-E1A inh inconclusive, gsp agonist 17% and gsp antag -13%.
For N#C/C(=C\c1ccc(O)c(Br)c1)C(=O)N1CCCCC1 the results were Six1-Eya2 blk 7, D2 PAM -5, D2 ag -1.0, CtBP-E1A inh 4, gsp agonist 7%[15.4 µM] and gsp antag inconclusive.
For Cc1ccc(NC(=O)OC(C)N2CCCCC2)cc1NC(=O)OC(C)N1CCCCC1 (configuration not stated) the results were Six1-Eya2 blk -5, D2 PAM -17, D2 ag -7.6, CtBP-E1A inh -6, gsp agonist inconclusive and gsp antag -4%.
Screening CCCNS(=O)(=O)c1cccc(C(=O)NC2CCCc3ccccc32)c1 (configuration not stated) returned Six1-Eya2 blk 17, D2 PAM -5, D2 ag -2.1, CtBP-E1A inh 7, gsp agonist -32%[inhibitor] and gsp antag 6%.
Cc1cccc2cc(C#N)c(NCCCn3ccnc3)nc12 was read as Six1-Eya2 blk 0, D2 PAM 29, D2 ag 8.1, CtBP-E1A inh -19, gsp agonist 1% and gsp antag -5%.
For CC(C)CC(=O)/C(=C/c1ccc(N(C)C)cc1)n1cncn1 the results were Six1-Eya2 blk 7, D2 PAM -9, D2 ag 2.2, CtBP-E1A inh 5, gsp agonist -32% and gsp antag 10%.
Screening CCCn1nc(NS(=O)(=O)c2cccc3nonc23)c2cc3ccccc3nc21 returned Six1-Eya2 blk -9, D2 PAM -21, D2 ag -5.5, CtBP-E1A inh inconclusive, gsp agonist -5% and gsp antag -25%.
Cc1oc2ccc(O)cc2c1C(=O)c1ccccc1 was read as Six1-Eya2 blk 3, D2 PAM 7, D2 ag 8.9, CtBP-E1A inh 6, gsp agonist -64%[inhibitor] and gsp antag 9%.
For COc1ccc(C(=O)OCC(=O)NC2CC2)cc1[N+](=O)[O-] the results were Six1-Eya2 blk 4, D2 PAM 2, D2 ag -0.5, CtBP-E1A inh 2, gsp agonist 4% and gsp antag 9%.
`CCC(=O)Nc1nnc(S(=O)(=O)N(C)Cc2ccco2)s1` gave Six1-Eya2 blk 4, D2 PAM -7, D2 ag -2.9, CtBP-E1A inh 1, gsp agonist -25% and gsp antag 6%.
Screening Brc1ccccc1-n1nnc(-c2nccs2)n1 returned Six1-Eya2 blk 9, D2 PAM -9, D2 ag -3.3, CtBP-E1A inh -20, gsp agonist 11% and gsp antag 0%.
`Fc1ccc(-c2ccc(CNCc3ccccn3)o2)cc1` gave Six1-Eya2 blk inconclusive, D2 PAM -16, D2 ag -1.5, CtBP-E1A inh -21, gsp agonist -9%[15.4 µM] and gsp antag 0%.
O=C(NCC(c1cccnc1)N1CCN(c2ccccc2)CC1)C1CCCCC1 (configuration not stated) was read as Six1-Eya2 blk 3, D2 PAM -18, D2 ag -0.7, CtBP-E1A inh 7, gsp agonist -28% and gsp antag 8%.
For COc1ccc(Br)cc1CNC(=O)Nc1cccs1 the results were Six1-Eya2 blk 9, D2 PAM -11, D2 ag -2.3, CtBP-E1A inh 28, gsp agonist 11% and gsp antag -13%.
For CCOc1ccc(NC(=S)NCc2cccnc2)cc1 the results were Six1-Eya2 blk 2, D2 PAM -5, D2 ag -5.8, CtBP-E1A inh 1, gsp agonist 12%[15.4 µM] and gsp antag 5%.
Screening CCn1nc(C(C)C)cc1C(=O)N1CCCC(CO)(Cc2ccc(F)cc2F)C1 (configuration not stated) returned Six1-Eya2 blk -4, D2 PAM -6, D2 ag 3.3, gsp agonist 4% and gsp antag 1%.
`COC1=C/C(=C/c2c(N)n3nc(-c4ccc(C)cc4)sc3nc2=O)C=CC1=O` gave Six1-Eya2 blk 0, D2 PAM 4, D2 ag 1.4, CtBP-E1A inh -24, gsp agonist 9% and gsp antag inconclusive.
`CNC(=O)NC(=O)COC(=O)c1ccc(-n2c(C)ccc2C)cc1` gave Six1-Eya2 blk -4, D2 PAM -16, D2 ag -2.2, CtBP-E1A inh 3, gsp agonist inconclusive and gsp antag 10%.
O=C(Cn1cc2c(n1)CCCCC2)N1CCCCC1 was read as Six1-Eya2 blk 1, D2 PAM 0, D2 ag 0.1, CtBP-E1A inh -3, gsp agonist -140%[inhibitor] and gsp antag 9%.
For COCCNC(=O)c1c[nH]c2ccc(OC)cc2c1=O the results were Six1-Eya2 blk -8, D2 PAM -11, D2 ag -2.1, CtBP-E1A inh 6, gsp agonist -69%[inhibitor] and gsp antag -11%.
For Cc1ccc(S(=O)(=O)N2[C@H](C(C)C)[C@H]3[C@H]4C(=O)N(c5ccccc5)C(=O)[C@H]4CC(=O)[C@H]3[C@@H]2c2ccccc2)cc1 the results were Six1-Eya2 blk 1, D2 PAM 0, D2 ag 14 and CtBP-E1A inh 0.
For CCCCNC(=O)c1ccc(NS(=O)(=O)c2ccccc2)cc1 the results were Six1-Eya2 blk 6, D2 PAM -7, D2 ag 0.3, CtBP-E1A inh -3, gsp agonist -35%[inhibitor] and gsp antag 2%.
For C/C(=N\NC(=O)Cc1ccc(Cl)c(Cl)c1)c1cccnc1 the results were Six1-Eya2 blk 0, D2 PAM -16, D2 ag -0.1, CtBP-E1A inh 10, gsp agonist -50%[inhibitor] and gsp antag 0%.
For Cc1ccsc1CN1CC(=O)N(c2c(C)cccc2C)C1=S the results were Six1-Eya2 blk 0, D2 PAM -5, D2 ag 0.4, CtBP-E1A inh -11, gsp agonist -4%[15.4 µM] and gsp antag -40%.
